# VDR inhibitor = inhibitors of human vitamin D receptor; P11473; VDR-SRC2-3 peptide fluorescence polarization, 2 h; Potency, µM, without a hit: max response, negative = inhibition, hits mostly inhibitors; 400,000 tested, 0.93% active; AID 504847; active = well fitted inhibition curve with a large enough effect; inconclusive = small, poorly fitted or top-dose-only effect, or another doubt; inactive = no such curve, though single readings can be large or run the other way; note: series mostly up to about 120 µM
# Target sequence (P11473 whole entry, looked up): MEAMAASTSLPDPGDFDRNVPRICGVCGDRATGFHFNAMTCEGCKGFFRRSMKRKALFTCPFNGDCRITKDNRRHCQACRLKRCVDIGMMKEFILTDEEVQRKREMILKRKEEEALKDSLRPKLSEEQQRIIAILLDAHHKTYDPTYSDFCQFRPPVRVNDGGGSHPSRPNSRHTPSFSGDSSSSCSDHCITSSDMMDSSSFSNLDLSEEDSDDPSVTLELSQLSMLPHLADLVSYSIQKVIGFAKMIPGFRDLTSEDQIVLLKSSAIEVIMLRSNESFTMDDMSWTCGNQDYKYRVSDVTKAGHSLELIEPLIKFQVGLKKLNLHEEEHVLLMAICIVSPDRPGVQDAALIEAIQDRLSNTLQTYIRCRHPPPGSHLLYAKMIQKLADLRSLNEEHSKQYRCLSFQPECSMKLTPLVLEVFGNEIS
#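 After 23 nl compound addition and a short centrifugation, plates sat for 2 hours at ambient temperature; polarization of fluorescence then indicated loss of VDR binding to peptide SRC2-3.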
# Numbers without * were called inactive; ? = inconclusive; & = joins results of further samples; [ ] = remark or other dose. % is set by controls: 0 for no effect and ±100 for the full control effect; potency is the fitted concentration of half-maximal effect.
VDR inhibitor | Molecule
7% | Cc1cc(Br)cc(/C=N/NC(=O)c2ccc3c(c2)OCO3)c1O
0% | Cc1ccc(S(=O)(=O)N(C)Cc2ccc(-c3nnco3)cc2)cc1
-5% | COc1ccc(-c2c(C(=O)O)c(-c3ccccc3)cn2C)cc1
-17% | Cc1ccc(NC(=S)N=Nc2c(O)n(C)c3ccc(S(=O)(=O)N4CCOCC4)cc23)cc1
-4% | COc1ccc(/C=N/NC(=O)CNC(=O)/C=C/c2ccco2)cc1OC
-3% | Cc1cc(C)c(NC(=O)c2ccc3c(c2)CCN3S(C)(=O)=O)c(C)c1
-5% | CC(=O)N(CCCN(C)C)Cc1ccccn1
10% | O=C(O)CCC(=O)N1CCCC1C(=O)O (stereo not drawn)
-10% | CCCCC(CC)C(=O)NCCCN1CCN(CCCNC(=O)C(CC)CCCC)CC1 (stereo not drawn)
-9% | CC1Cc2ccccc2N1C(=O)CSc1nnnn1C1CCCC1 (stereo not drawn)
-24% | Cc1ccc(NC(=O)CNC(=O)c2ccc(C)s2)nc1
8% | O=C1CN(C(=O)COC(=O)c2ccccc2O)c2ccccc2N1

# A stretch from the list above:
VDR inhibitor | Molecule
-5% | CC(=O)N(CCCN(C)C)Cc1ccccn1
10% | O=C(O)CCC(=O)N1CCCC1C(=O)O (stereo not drawn)
-10% | CCCCC(CC)C(=O)NCCCN1CCN(CCCNC(=O)C(CC)CCCC)CC1 (stereo not drawn)
-9% | CC1Cc2ccccc2N1C(=O)CSc1nnnn1C1CCCC1 (stereo not drawn)
-24% | Cc1ccc(NC(=O)CNC(=O)c2ccc(C)s2)nc1
8% | O=C1CN(C(=O)COC(=O)c2ccccc2O)c2ccccc2N1

# Further results
VDR inhibitor | Molecule
-16% | COc1cc2c(cc1OC)[C@H](C)N(C(=O)CSc1nc(O)c(C(C)C)c(=O)[nH]1)CC2
7% | CCOc1ccc(-c2nc3c(c(CC)nn3-c3ccccc3)c3cc(OC)c(OC)cc23)cc1
0% | CC1(C)C2CCC1(C)C(OC(=O)CSc1nc(N)cc(=O)[nH]1)C2 (stereo not drawn)
13% | CC(C)(C)c1ccc(CSC2=Nc3ccccc3C3=NC(CC(=O)NCc4cccs4)C(=O)N23)cc1 (stereo not drawn)
10% | O=C(CCn1c(=O)[nH]c2ccsc2c1=O)Nc1ccc(F)c(F)c1
-2% | CCOC(=O)c1c(C)[nH]c(C2=NNC(=NC(C)COC)SC2)c1C (stereo not drawn)
-5%&-4% | C=CCc1cccc2cc(C(=O)Nc3ccc(F)cc3)c(=O)oc12
7% | O=C(OC(C(=O)NC1CCCC1)c1ccccn1)c1cccs1 (stereo not drawn)
-19% | COc1ccc(N2C(N)=C(C#N)C(c3ccsc3)C3=C2CCCC3=O)c(OC)c1 (stereo not drawn)
22% | COc1ccc(OC)c(NC(=O)COC(=O)c2cc3c(s2)CCC3)c1
-3% | COc1cccc(CN2CCN(Cc3cc4ccccc4o3)CC2CCO)c1 (stereo not drawn)
-26% | CCC(C)(C)n1nnnc1CN(Cc1ccc(Cl)cc1)Cc1ccco1

VDR inhibitor | Molecule
-1% | COC(=O)CN(C)C(=O)c1ccc(OC)c(OC2CCN(C(C)C)CC2)c1
13% | Cn1cnc(S(=O)(=O)N2CCC(C(=O)Nc3ccc(OC(F)(F)F)cc3)CC2)c1
2% | CCc1ccccc1N(CC(=O)NC(C)c1ccccc1)S(C)(=O)=O (stereo not drawn)
-2% | O=C(Cn1nnc(N2CCCCC2)n1)c1ccc(Cl)c(Cl)c1
-14% | COc1cc(OC)cc(C(=O)Nc2ccccc2N2CCOCC2)c1
-25% | O=C(CSc1nc(-c2ccccc2)nc2c1CCCC2)c1ccc(F)cc1
-12% | O=C(c1ccccc1)C(c1ccccc1)c1ccccc1
-1% | O=C(c1ccsc1)N1CCCC(N2CCOCC2)C1 (stereo not drawn)
-8% | Nc1nnc(SCC(=O)NNC(=O)c2ccccc2F)s1
-20% | S=c1nc(-c2ccccc2)oc2c1CCCC2
6% | c1ccc(-c2nnc3n2NC(c2ccc4c(c2)OCO4)S3)cc1 (stereo not drawn)
3% | O=C(CCn1c(=O)oc2ccccc21)N(Cc1ccccc1)c1ccccn1

VDR inhibitor | Molecule
1% | CCOC(=O)c1c(NC(=O)COC(=O)c2nccnc2N)sc(C(=O)N(C)C)c1C
-7% | Cc1ccc2nc(SCC(=O)Nc3ccc(Br)cc3)nc(=O)n2c1
0% | Cc1ccccc1Cn1c(Cc2ccccc2)nc2ccccc21
-7% | CCOC(=O)c1c(NC(=O)C[n+]2ccccc2)sc2c1CCCC2
-13% | Cn1c(SCc2c(F)cccc2Cl)nnc1-c1cnccn1
4% | COc1cc2c(cc1OC)C(C)N(C(=O)c1cc3c(=O)oc4ccc(C)cc4c3s1)CC2 (stereo not drawn)
-13% | Cc1ccc(-c2csc(NC(=O)C3=NN(c4ccccc4)C(=O)CC3)n2)cc1
-1% | COc1ccc(N2CC(C(=O)N3CCCC(C)C3)CC2=O)cc1 (stereo not drawn)
-17% | CC(=O)N1CCN(C(=S)Nc2cc(S(=O)(=O)N3CCOCC3)ccc2Cl)CC1
-11% | CCn1cc(C(=O)N[C@@H](CCSC)C(=O)NCCO)c(=O)c2cc3c(cc21)OCO3
6% | CCOc1cc(S(=O)(=O)N2CCCCCC2)ccc1F
11% | CC12CCC(=O)N1C(C(=O)NCc1ccc(Cl)cc1Cl)CS2 (stereo not drawn)

VDR inhibitor | Molecule
-19% | CCOc1cc(/C=N/NC(=O)c2nn(C)cc2Br)ccc1OCc1ccccc1Cl
-15% | COC(=O)c1ccc(CNC(=O)Cn2cnc3c(SC)nc(N)nc32)cc1
5% | CN1Cc2c(N3CCOCC3)nc3sc(C(=O)c4ccccc4)c(N)c3c2CC1(C)C
5% | Cc1cccc(N2CCN(S(=O)(=O)c3cc(C(=O)Nc4ccc(Oc5ccccc5)cc4)ccc3F)CC2C)c1 (stereo not drawn)
9% | CN(C)c1ccc(-c2nc3cnccn3c2Nc2cccc(C(F)(F)F)c2)cc1
13% | COc1ccc(C(=O)NC2CCN(S(=O)(=O)c3ccccc3)CC2)cc1
-13% | COc1cc(C(F)(F)F)c(C(=O)N(C)Cc2ccc(Cl)c(Cl)c2)cn1
8% | CC(=O)N1CCc2cc(S(=O)(=O)Nc3ccccc3N3CCN(C)CC3)ccc21
-2% | O=C(Cn1cccc1C(=O)c1ccccc1)NCc1ccccn1
-11% | O=C(CCn1c(=S)oc2ccccc21)Nc1ccc2c(c1)OCCO2
2% | COc1ccccc1CNC(=O)c1cnc2sc(N3CCCCCC3)nn2c1=O
-10% | Cc1ccc(CNC(=O)C2CCCN2S(=O)(=O)c2ccc(F)cc2)cc1 (stereo not drawn)

# 3 compounds out of the list above, ordered by the number in VDR inhibitor, highest first:
VDR inhibitor | Molecule
-10% | Cc1ccc(CNC(=O)C2CCCN2S(=O)(=O)c2ccc(F)cc2)cc1 (stereo not drawn)
-13% | COc1cc(C(F)(F)F)c(C(=O)N(C)Cc2ccc(Cl)c(Cl)c2)cn1
-19% | CCOc1cc(/C=N/NC(=O)c2nn(C)cc2Br)ccc1OCc1ccccc1Cl

# Going on with the list.
VDR inhibitor | Molecule
11% | COc1cccc(CNC(=O)CN2C(=O)CC(c3ccccc3)=Nc3ccccc32)c1
-8% | CC(CSc1nc2ccccc2s1)Cn1c(N2CCCC2)nc2c1c(=O)[nH]c(=O)n2C (stereo not drawn)
4%&0% | CCCCC(CC)CN1CN(CC(CC)CCCC)CC(C)(N)C1 (stereo not drawn)
-16% | Cc1sc2nc(CSCC(=O)N3CC(C)OC(C)C3)[nH]c(=O)c2c1C (stereo not drawn)
2% | COc1cc(/C=N/n2cnnc2)ccc1OCC(=O)N1CCOCC1
-1% | COc1ccc(S(=O)(=O)N(C)C)cc1NC(=O)C1CCN(c2ncnc3sc(C)c(C)c23)CC1
-9% | CC(C)(C)c1ccc(C(=O)N2CCCN(c3ccc([N+](=O)[O-])cn3)CC2)cc1
-9% | CC(C)CC(=O)NC(=S)Nc1nc(-c2cccc3ccccc23)cs1
18% | CCN1CCCC1CNC(=O)CCNC(=O)c1cc(OC)c(OC)c(OC)c1 (stereo not drawn)
2% | CC1CC(c2ccccc2)n2nc(NC(=O)CCc3ccccc3)nc2N1 (stereo not drawn)
7% | Cc1oc(S(=O)(=O)N2CCOCC2)cc1C(=O)Nc1ccc(F)cc1
2% | COC(=O)C[C@](O)(CCCC(C)(C)O)C(=O)O[C@@H]1C(OC)=C[C@]23CCCN2CCc2cc4c(cc2[C@H]13)OCO4

# Reformatted: entries from further up
molecule | VDR inhibitor
O=C(CCn1c(=O)oc2ccccc21)N(Cc1ccccc1)c1ccccn1 | 3%
CCOC(=O)c1c(NC(=O)COC(=O)c2nccnc2N)sc(C(=O)N(C)C)c1C | 1%
Cc1ccc2nc(SCC(=O)Nc3ccc(Br)cc3)nc(=O)n2c1 | -7%

# New compounds follow
VDR inhibitor | Molecule
-1% | Cn1c(CNC(=O)C(Cc2ccccc2)NC(=O)c2ccccc2)cc(=O)n(C)c1=O (stereo not drawn)
4% | NC(=O)c1ccc(NS(=O)(=O)c2ccc(Br)s2)cc1
-1% | CC(=O)c1ccc(NC(=O)CCCN2C(=O)/C(=C/C(C)=C/c3ccccc3)SC2=S)cc1
6% | Cc1ccc(C(=O)COC(=O)c2n[nH]c(=O)c3ccccc23)cc1
16% | CCC(C)(C)NC(=O)C(c1ccncc1)N(C(=O)c1sc(C)nc1C)c1ccc(F)cc1 (stereo not drawn)
2% | NC(=O)CSc1nc2ccccc2nc1SCC(N)=O
-21% | Cc1cc(C)n2nc(SCc3ncc(-c4ccccc4)o3)nc2n1
? | O=C(NNC(=S)NC(=O)c1ccc(Br)cc1)c1cccc([N+](=O)[O-])c1
6% | Cc1nn2c(NCCN(C)C)c3c(nc2c1-c1ccccc1)CCCC3
-1% | CC(C)(CNC(=O)c1ccc([N+](=O)[O-])c(Cl)c1)CNC(=O)c1ccc([N+](=O)[O-])c(Cl)c1
13% | COc1ccc(-n2nc(C(=O)NCC(=O)NC3CCCC(C)C3C)c3ccccc3c2=O)cc1 (stereo not drawn)
53%[activator] | COc1ccc(/C=C/C(=O)Nc2ccc3nc4c(c(Nc5ccc(OC)c(OC)c5)c3c2)CCCC4)cc1

VDR inhibitor | Molecule
3% | Cc1ccc(CNC(=O)Cc2c(C)c3c(cc(C)c4c(C)coc43)oc2=O)cc1
-5% | Cc1ccc2nc(SCC(=O)NCc3ccco3)nc(=O)n2c1
-12% | O=C(NCc1cccs1)C(=O)c1cn(CC(=O)N2CCOCC2)c2ccccc12
-1% | c1ccc(-c2nc(-c3ccccc3)c(Nc3ccc4ccccc4c3)o2)cc1
35%[activator] | CCc1nn(C(CC)C(=O)NCCCc2ccccc2)c(=O)c2cc3occc3n12 (stereo not drawn)
-18% | CC1=C(C(=O)Nc2cccnc2)C(c2cccc(F)c2)n2nc(SCc3ccccc3)nc2N1 (stereo not drawn)
5% | Cc1ccc[n+](C(C)C(=O)c2ccc(Cl)cc2)c1 (stereo not drawn)
-16% | O=C(Cn1cc([N+](=O)[O-])cn1)NCC1CCCO1 (stereo not drawn)
? | CC(Nc1nc(=S)nc(Nc2ccc(F)cc2)[nH]1)c1ccccc1 (stereo not drawn)
5% | O=C(COC(=O)CNC(=O)c1ccc(F)cc1)Nc1cccc(S(=O)(=O)N2CCCC2)c1
-18% | CC(C)(C)c1ccc(S(=O)(=O)N2CCN(CC(O)COCC3CCCO3)CC2)cc1 (stereo not drawn)
0% | Cc1nnc2sc(-c3ccc(-c4ccc(Cl)c(C(F)(F)F)c4)o3)nn12

# Arranged by heavy-atom count (highest first): some entries from above
VDR inhibitor | Molecule
13% | CC(C)(C)c1ccc(CSC2=Nc3ccccc3C3=NC(CC(=O)NCc4cccs4)C(=O)N23)cc1 (stereo not drawn)
35%[activator] | CCc1nn(C(CC)C(=O)NCCCc2ccccc2)c(=O)c2cc3occc3n12 (stereo not drawn)
10% | O=C(CCn1c(=O)[nH]c2ccsc2c1=O)Nc1ccc(F)c(F)c1
7% | O=C(OC(C(=O)NC1CCCC1)c1ccccn1)c1cccs1 (stereo not drawn)

# Next compounds
VDR inhibitor | Molecule
-22% | Nc1nc(SCCO)[nH]c(=O)c1NC(=O)c1ccc(Br)o1
-9% | COC(=O)c1sccc1NC(=O)CC1C(=O)NCCN1C(=O)Nc1ccccc1 (stereo not drawn)
-1% | O=C(CSc1nc2ccccc2n1Cc1ccccc1)N1CCN(c2ccc(F)cc2)CC1
-5% | COc1ccc2c(c1)c1c(c(=O)n(-c3ccc(F)c(Cl)c3)c(=O)n1Cc1ccccc1F)n2C
12% | COc1ccc(-c2sc3ccc(N4CCOCC4)cc3c2C#CCCO)cc1
-4% | O=C(N/N=C/c1ccccc1O)NC12CC3CC(CC(C3)C1)C2
8% | C/C(=N\NC(=O)C1CC1)c1ccc(C)c(C)c1
-11% | COc1ccc(-c2cc(C(F)(F)F)nc(NCc3ccco3)n2)cc1OC
-15% | COc1ccc(Br)cc1CNC(=O)C1CCC(=O)N1C(C)C (stereo not drawn)
-14% | COc1cc2ncc(S(=O)(=O)c3ccccc3)c(N3CCCC(C)C3)c2cc1OC (stereo not drawn)
-20% | CSc1cccc(NC(=O)N2CCN(C)CC2)c1
-2% | CCOc1ccc(S(=O)(=O)Nc2cccc(C(=O)NCCCN3CCCC3=O)c2)cc1

VDR inhibitor | Molecule
2% | CCN(CC(=O)Nc1ccccc1C(F)(F)F)C(=O)CCSc1ccc(F)cc1
12% | CCCCCCCCCC[Si](C)(C)CCC(=O)NC(Cc1ccc(C)cc1)c1ccccc1 (stereo not drawn)
-3% | COc1ccc(OC)c(/C=C/C(=O)OCC(=O)Nc2ccc(Cl)c(S(=O)(=O)N(C)C)c2)c1
-8% | Cc1cnc(C(=O)OC(C)C(=O)c2c(C)[nH]c3ccccc23)cn1 (stereo not drawn)
4% | COc1cc(CN2CCN(Cc3ccc(C)cc3)CC2)c([N+](=O)[O-])cc1OC
15% | COCCCN1C(=O)c2ccc(C(=O)OCC(=O)N3CCN(c4ccccc4)CC3)cc2C1=O

# Source: PubChem BioAssay

# Not all compounds are listed; rates above refer to the full screens.
